Screening results as filed in PubChem.
RmlCD inh 1536 = M. tuberculosis RmlC/RmlD coupled enzyme inhibitors, primary screen, biochemical, compound mixtures, 384-well, from 1536-well plates; dTDP-4-dehydrorhamnose reductase (Mycobacterium tuberculosis (strain ATCC 25618 / H37Rv)) …; RmlC+RmlD coupled enzyme assay, percent inhibition; primary screen in compound mixtures; inhibition, % at 3.6 µM; hit rate 0.03% among 160,000; AID 1533, 2009; in the data active means inhibition mostly above about 34%, no sharp cut-off; only retested compounds are shown here; further: some results filed as inactive read as strong as hits
Target sequence (P9WH09 whole entry, looked up): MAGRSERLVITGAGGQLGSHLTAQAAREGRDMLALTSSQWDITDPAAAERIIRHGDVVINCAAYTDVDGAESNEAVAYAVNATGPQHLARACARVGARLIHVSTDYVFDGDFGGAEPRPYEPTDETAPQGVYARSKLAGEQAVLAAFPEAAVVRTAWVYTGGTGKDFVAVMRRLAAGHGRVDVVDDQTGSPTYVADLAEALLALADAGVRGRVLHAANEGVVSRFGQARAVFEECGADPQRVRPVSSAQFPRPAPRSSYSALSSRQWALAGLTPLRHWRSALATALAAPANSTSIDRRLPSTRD
Target sequence (P9WH11 whole entry, looked up): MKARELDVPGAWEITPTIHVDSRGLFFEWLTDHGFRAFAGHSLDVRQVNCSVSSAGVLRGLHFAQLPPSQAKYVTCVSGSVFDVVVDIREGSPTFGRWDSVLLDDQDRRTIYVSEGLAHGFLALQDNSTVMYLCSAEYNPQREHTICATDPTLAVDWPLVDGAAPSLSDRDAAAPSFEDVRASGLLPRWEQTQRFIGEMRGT
RmlCD inh 1536 retest = also measured in RmlCD inh 1536; calls as there; inhibition, %; measured here: mean retest inhibition;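 single compounds in two wells; values far above 100% likely come from compound fluorescence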
An asterisk follows results filed as active. A portion of the library. The share of hits here may be higher or lower than overall.

SMILES	RmlCD inh 1536	RmlCD inh 1536 retest
CC(C)Oc1ccc(/C(O)=C2/C(=O)C(=O)N(CCCn3ccnc3)C2c2cccnc2)cc1 (stereo not given)	61	-8
Cc1ccnc2nc(C(=O)NC3CCCc4ccccc43)nn12 (stereo not given)	41	5
O=C(COC(=O)/C=C/c1cccc(Cl)c1)NCCc1ccc(Cl)cc1Cl	37	-6
CCC1(C)C(Nc2c(C)cccc2C)=NC(=S)N1c1ccc(NC(C)=O)cc1 (stereo not given)	35	-6
O=C(Cn1nc(C(=O)O)c2ccccc2c1=O)NCc1ccco1	43	11
O=C(CCCc1ccccc1)Nc1ccc(S(=O)(=O)N2CCOCC2)cc1	79	-10
Nc1nc(NC(=O)c2ccc(Cl)cc2)nn1-c1ccccc1	44	9
O=C(Cn1cccc1C(=O)c1ccccc1)NCc1cccc(Cl)c1	31	-1
Cc1nc(-c2noc(-c3ccccc3Cl)n2)c(C(F)(F)F)o1	44	-12
O=C1/C(=C/c2ccc(F)cc2)Oc2cc(OC(=O)N3CCOCC3)ccc21	60	-12
CC1=NC(=O)C(N=Nc2cccc(O)c2)N1c1ccccc1 (stereo not given)	40	-12
COc1ccc(C2=NO[C@@H]3C(=O)N(Cc4ccccc4)C(=O)[C@H]23)c(OC)c1	32	-13
CSCCC(NC(=O)C12CC3CC(CC(C3)C1)C2)C(=O)OCC(=O)c1ccccc1 (stereo not given)	79	5
COC(=O)c1[nH]c2ccc(C)cc2c1NS(=O)(=O)c1ccc(F)c(C)c1	32	1
COC(=O)c1cc(NC(=O)CN(c2cccc(OC)c2)S(=O)(=O)c2ccccc2)ccc1Cl	31	-9
CC(C)CCN1CCN(Cc2ccc(Sc3nncn3C)o2)CC1CCO (stereo not given)	65	-7
O=C(N/N=C/c1ccc(OCCCF)cc1)c1cc(OCC(F)(F)F)ccc1OCC(F)(F)F	92	-9
CC(C)C(=O)NC(=S)Nc1ccc(S(=O)(=O)Nc2ccccc2)cc1	34	-18
CC(=O)Nc1ccc(N(C(=O)Cn2nnc3ccccc32)C(C(=O)NC2CCCC2)c2ccc(O)c(O)c2)cc1 (stereo not given)	105	-8
COc1cccc(/C=N/NC(=O)CNC(=O)C2COc3ccccc3O2)c1O (stereo not given)	95	16
CC(C)(C)OC(=O)NNC(=O)C12CC3CC(CC(C3)C1)C2	32	-3
CC(C)Cc1nnc(NC(=O)CCC(=O)NC2CCCc3ccccc32)s1 (stereo not given)	54	-12
COc1cccc(OCc2cc(/C=N/NC(=O)c3ccn[nH]3)ccc2OC)c1	35	9
CCOC(=S)SCC(=O)N1CCc2ccccc2C1C1C(=O)CCCC1=O (stereo not given)	102	-2
CCc1ccc(NC(=O)Nc2cccc(OC)c2)cc1	39	-17
CNC(=O)c1cccc2nc3ccccc3nc12	55	-2
Oc1c(Cl)cc(Cl)cc1/C=N/NC(=S)NC1CC2C=CC1C2 (stereo not given)	31	-30
CN(C)C(=S)SCC(=O)Nc1ccc(Cl)cc1Cl	57	-18
CC(=N\Nc1ccc(Cl)cc1)/C(=N/O)C(=O)Nc1ccccc1	68	4
CC(C)CC(=O)N(Cc1ccc(F)cc1)C1CCS(=O)(=O)C1 (stereo not given)	31	4
Cc1ccccc1NC1(C#N)C(=O)Nc2ccccc21 (stereo not given)	36	2
Oc1c(C(c2cccs2)N2CCN(c3ccccc3)CC2)ccc2cccnc12 (stereo not given)	40	10
S=C(Nc1ccccc1)Nc1ccccc1-n1cccc1	74	-13
Cc1cc(C)nc(SCc2ccc(C(=O)NN=C3C4CC5CC(C4)CC3C5)cc2)n1	75	10
Cc1nc(C)c(C)nc1C	48	-4
O=C(O)C1=NOC(CNc2ncc(C(F)(F)F)cc2Cl)C1 (stereo not given)	65	-15
CCCCOc1ccc(-c2ncc(N)cn2)cc1	89	-10
O=C(NCCc1ccc(F)cc1)c1ccc([N+](=O)[O-])cc1	51	-9
Cc1ccc(NC(=O)N(CCCN2CCOCC2)Cc2cc3cc4c(cc3[nH]c2=O)OCO4)cc1	46	0
CCCNS(=O)(=O)c1ccc2c(c1)n(C)c(=O)n2C	71	5
CCOc1ccc(N2C(=O)C(=O)/C(=C(/O)c3ccccc3)C2c2ccccc2[N+](=O)[O-])cc1 (stereo not given)	49	7
CSc1nc2c(c(=O)[nH]1)C(c1ccc(Br)cc1)CC(=O)N2 (stereo not given)	40	18
Cc1nn(C)c(=O)n1-c1ccccc1	43	-35
Cc1csc(NC(=O)C(NC(=O)c2ccccc2F)C(C)C)n1 (stereo not given)	36	-12
COC(CNC(=O)c1ccc2c3c(onc13)-c1ccccc1C2=O)OC	65	-2
CCOC(=O)C(C)Oc1ccc2c(-c3cccc([N+](=O)[O-])c3)cc(=O)oc2c1 (stereo not given)	52	-25
CNc1ccccc1C(C)(C)c1cc(C)[nH]n1	39	-26
O=C(N/N=C/c1c(Cl)cccc1Cl)C(=O)NC1CC1	34	4

Quoted at random: five entries already listed.
SMILES	RmlCD inh 1536	RmlCD inh 1536 retest
Cc1nn(C)c(=O)n1-c1ccccc1	43	-35
COC(CNC(=O)c1ccc2c3c(onc13)-c1ccccc1C2=O)OC	65	-2
CCCNS(=O)(=O)c1ccc2c(c1)n(C)c(=O)n2C	71	5
Cc1ccc(NC(=O)N(CCCN2CCOCC2)Cc2cc3cc4c(cc3[nH]c2=O)OCO4)cc1	46	0
Cc1csc(NC(=O)C(NC(=O)c2ccccc2F)C(C)C)n1 (stereo not given)	36	-12

More structures:
SMILES	RmlCD inh 1536	RmlCD inh 1536 retest
Cc1ccc(C(=O)Nc2cc3c(oc2=O)CCCC3=O)cc1	49	1
CC(C)N(C(=O)COC(=O)CNS(=O)(=O)c1ccccc1F)c1ccccc1	57	-10
CC(C)CCNC(=S)Nc1ccc2nc3n(c(=O)c2c1)CCCCC3	32	-4
O=C(O)c1ccc2nc(-c3ccco3)c(-c3ccco3)nc2c1	60	1
COc1ccc(C(=O)NC(=S)N2CCN(C)CC2)cc1Br	37	-7
Cc1coc2cc3oc(=O)c4c(c3cc12)CCCC4	43	-9
COc1ccc(NC(=O)CSc2nc(N)c3cc4c(nc3n2)CC(C)(C)OC4)cc1	84	12
Cc1ccc(-n2c(C)cc(C3=NNC(=NC4CC4)SC3)c2C)cc1C	32	6
Cc1[nH]n(-c2ccccc2)c(=O)c1C=Nc1ccc2[nH]c(=O)[nH]c2c1	43	-8
CC(=O)c1ccc(NS(=O)(=O)c2ccc(C)cc2)cc1	98	7
CCOC(=O)CNC(=O)C(CC(N)=O)NC(=O)OC(C)(C)C (stereo not given)	51	8
CCSc1nnc(NC(=O)[C@@H](NC(=O)c2cccc(C)c2)C(C)C)s1	54	1

5 of the compounds above, as a markdown table.
| compound | RmlCD inh 1536 | RmlCD inh 1536 retest |
| --- | --- | --- |
| COc1ccc(C(=O)NC(=S)N2CCN(C)CC2)cc1Br | 37 | -7 |
| Cc1coc2cc3oc(=O)c4c(c3cc12)CCCC4 | 43 | -9 |
| COc1ccc(NC(=O)CSc2nc(N)c3cc4c(nc3n2)CC(C)(C)OC4)cc1 | 84 | 12 |
| Cc1ccc(-n2c(C)cc(C3=NNC(=NC4CC4)SC3)c2C)cc1C | 32 | 6 |
| Cc1[nH]n(-c2ccccc2)c(=O)c1C=Nc1ccc2[nH]c(=O)[nH]c2c1 | 43 | -8 |

Other records follow.
SMILES	RmlCD inh 1536	RmlCD inh 1536 retest
CC(Cc1cccs1)NC(=O)c1cccs1 (stereo not given)	43	-2
CCOC(=O)Cn1c(=N)n(CCOc2ccc(Br)cc2)c2ccccc21	44	-19
Cn1cc2ccc([N+](=O)[O-])cc2n1	37	8
Cc1ccc2c(c1)C1CN(C)CCC1N2C(=S)Nc1ccc(OC(F)F)cc1 (stereo not given)	40	5
COc1ccc2sc(N(CCN(C)C)C(=O)/C=C/c3cccs3)nc2c1	38	-1
Cc1ccc(S(=O)(=O)N(C)C)cc1NC(=S)NNC(=O)C(N)=O	67	8
CN(C)CCNC(NC(=O)c1cccs1)C(Cl)(Cl)Cl (stereo not given)	54	6
N#Cc1c(SCC(=O)Nc2ccccc2)nsc1SCC(=O)Nc1ccccc1	33	-7
COc1cc(/C=C2/C(=O)N(c3ccccc3)N=C2C)ccc1OS(=O)(=O)c1ccccc1	47	-9
CC(C)(CC(=O)O)CC(=O)NCc1c(Cl)cccc1Oc1ccccc1	84	-11
CCN1c2ccccc2-c2nc3ccccc3n2C1c1cccs1 (stereo not given)	32	-119
COc1ccc([C@H]2C(C#N)=C([S-])N[C@](C)(O)[C@@H]2[n+]2ccccc2)cc1	62	2
CCOc1cccc(C(=O)Nc2cccc(NC(=O)c3ccco3)c2)c1	35	-18
CCn1c(CCCCc2n[nH]c(=S)n2CC)n[nH]c1=S	30	-56
N#Cc1c2n(c(=S)n(-c3ccccc3[N+](=O)[O-])c1=O)CCCCC2	39	-6
COc1ccc(-c2nc3ccccc3c(=O)n2-c2ccc(OC)cc2)cc1	47	-6
Cc1ccc(C(=O)c2sc(Nc3ccccc3)c(C#N)c2N)cc1	94	3
Cc1ccccc1NC(=S)N1CCN(Cc2ccccc2)CC1	49	5
CCCCNC(=S)Nc1cc(S(=O)(=O)N2CCCCC2)ccc1C	38	3
N#CC(C#N)=C1C(=O)N(CCN2CCCCC2)c2ccccc21	55	-2
O=C(/C=C/c1ccccc1)NC(=S)Nc1ccc(N2CCOCC2)c(Cl)c1	62	8
CCOc1cc(/C=C2\C(=O)ON=C2C)ccc1OCc1ccccc1	33	1
Cc1cc(C)c2c(N)c(C(=O)C(C)(C)C)sc2n1	39	-7
COc1ccc(/C=C2/CC/C(=C\c3ccc(OC)c(OC)c3OC)C2=O)c(OC)c1OC	43	-10
Cc1ccc(S(=O)(=O)N2CCCCC2)cc1C(=O)N1CCN(c2ccccn2)CC1	60	7
Cc1ccc(CC(=O)NCc2ccc(Cl)cc2)cc1	61	-8
O=C1NC(=Nc2ccc(O)cc2)S/C1=C/c1ccco1	38	12
O=C(O)c1ccc(CNC(=O)c2ccccc2NC(=O)c2ccc([N+](=O)[O-])cc2)cc1	31	11
CCC(C)[C@H](NC(=O)NCc1ccc(S(N)(=O)=O)cc1)C(=O)OC (stereo not given in full)	45	-30
O=C(c1ccccc1SCc1ccc(F)cc1)N1CCOCC1	46	-6
CC(=O)N1CCN(CCN=CC2=C(O)CC(c3ccco3)CC2=O)CC1 (stereo not given)	55	5
COc1ccc(N2CCC(CNC(=S)Nc3c(C)cccc3C)C2)cc1 (stereo not given)	50	12
COC(=O)/C(=C/Nc1cccc2ccccc12)[N+](=O)[O-]	100*	127*
CCOC(=O)N1CCN(S(=O)(=O)c2ccc(C)cc2)C1	35	-32
Clc1ccc(-c2csc3ncnc(N4CCc5ccccc5C4)c23)cc1	37	13
COc1ccc(-c2[nH]ncc2-c2cscn2)c(O)c1	60	10
CN1CCC(N(C)C(=O)c2sc3cc(F)ccc3c2Cl)CC1	36	-21
Cn1nnnc1SCC(=O)N1CCN(S(=O)(=O)c2ccc(Cl)cc2)CC1	88	-9
COc1ccc(Oc2ccc(-c3ccn[nH]3)cc2)cc1	55	6
Nc1nc(-c2cccnc2)nn1C(=O)c1ccco1	102	-31
CNC1=C([N+](=O)[O-])CC([N+](=O)[O-])=C(N2CCNCC2)N1C	34	9
O=C(Nc1ccc(Cl)c(S(=O)(=O)N2CCOCC2)c1)c1cn2ccccc2n1	38	10
Cc1cc(C)nc(N2N=C(c3ccccc3)CC2=O)n1	65	-32
Cc1ccccc1-c1nnn(C/C(N)=N/O)n1	106	-4
COC(=O)c1ccc(NC(=S)N(Cc2cccnc2)Cc2ccco2)cc1	46	-11
COc1ccc(CCn2nnnc2C(CC(C)C)N2CCN(c3ncccn3)CC2)cc1OC (stereo not given)	56	-12
COc1ccc(C(=O)NCCN2C(=O)S/C(=C\c3cccnc3)C2=O)cc1[N+](=O)[O-]	31	-10
O=C(CCl)NNC(=O)c1c(O)c2ccccc2[nH]c1=O	55	-12

Complete entries, looked up by structure. Screens in order: RmlCD inh 1536, RmlCD inh 1536 retest
Nc1nc(-c2cccnc2)nn1C(=O)c1ccco1 as listed: 102, -31
O=C(CCl)NNC(=O)c1c(O)c2ccccc2[nH]c1=O as listed: 55, -12
CN1CCC(N(C)C(=O)c2sc3cc(F)ccc3c2Cl)CC1 as listed: 36, -21

Further entries:
SMILES	RmlCD inh 1536	RmlCD inh 1536 retest
O=C(O)C1CCCCC1C(=O)NC(c1ccccc1)c1ccccc1 (stereo not given)	84	-6
Cc1cccc2cc3c(nc12)SC(=NCC1CCCO1)N(Cc1ccco1)C3 (stereo not given)	44	15
CCOC(=O)C1=C(C)NC2=C(C(=O)CC(C)(C)C2)C1c1cccc(C)n1 (stereo not given)	53	0
CNC(=O)NNC(=O)c1nc(-c2ccccc2)c(C)o1	44	-12
Cc1c(C(=O)Nc2nnc(SCc3ccccc3Cl)s2)cccc1[N+](=O)[O-]	47	-3
CCNC(=O)/C(C#N)=C/c1c(N2CCN(Cc3ccc4c(c3)OCO4)CC2)nc2c(C)cccn2c1=O	79	12
O=C(C1=NN[C@@H]2C(=O)N(c3ccccc3C(F)(F)F)C(=O)[C@H]12)C(c1ccccc1)c1ccccc1	32	3
COC(=O)c1c(-c2ccccc2)c[nH]c1C	56	11
CC(C)Oc1ccc(N2CC(C(=O)NC3=NCCS3)CC2=O)cc1 (stereo not given)	106	-25
CCCn1c(SCC(=O)Nc2cccc(C)n2)nc2c1c(=O)n(C)c(=O)n2C	39	10
CCOC(=O)CSc1nc(C)c2cccc(C)c2n1	79	-11
COc1ccccc1NC(=O)CNc1ccc(F)c(Cl)c1	71	-15
CC1(C)Cc2c(sc(NC(=O)COc3ccccc3)c2C#N)C(C)(C)N1	40	1
Cc1ccc(NC(=S)NCC2CCN(C(C)c3ccccc3)C2)cc1 (stereo not given)	56	-4
